Screening data: PubChem, National Center for Advancing Translational Sciences (NCATS)
TRPML1 inh – blocks the human TRPML1 channel; Q9GZU1; TRPML1-inducible cells, Ca2+ dye fluorescence, FDSS; active compounds read low; inhibition of EC80 agonist-evoked calcium signal; activity change, negative = inhibition, % (no concentration beside the values); actives 0.02% (n = 390,000); in the data active means activity change below about -50%; inconclusive means about -30% to -50%; inactive means above about -30%;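 also: stimulus is agonist 54-4 at its EC80 concentration; % is scaled to controls: 0 for no effect and ±100 for the full control effect; compound concentration not given in the record; the text of the record puts the active cut at -80%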
Target sequence (Q9GZU1 whole entry, looked up): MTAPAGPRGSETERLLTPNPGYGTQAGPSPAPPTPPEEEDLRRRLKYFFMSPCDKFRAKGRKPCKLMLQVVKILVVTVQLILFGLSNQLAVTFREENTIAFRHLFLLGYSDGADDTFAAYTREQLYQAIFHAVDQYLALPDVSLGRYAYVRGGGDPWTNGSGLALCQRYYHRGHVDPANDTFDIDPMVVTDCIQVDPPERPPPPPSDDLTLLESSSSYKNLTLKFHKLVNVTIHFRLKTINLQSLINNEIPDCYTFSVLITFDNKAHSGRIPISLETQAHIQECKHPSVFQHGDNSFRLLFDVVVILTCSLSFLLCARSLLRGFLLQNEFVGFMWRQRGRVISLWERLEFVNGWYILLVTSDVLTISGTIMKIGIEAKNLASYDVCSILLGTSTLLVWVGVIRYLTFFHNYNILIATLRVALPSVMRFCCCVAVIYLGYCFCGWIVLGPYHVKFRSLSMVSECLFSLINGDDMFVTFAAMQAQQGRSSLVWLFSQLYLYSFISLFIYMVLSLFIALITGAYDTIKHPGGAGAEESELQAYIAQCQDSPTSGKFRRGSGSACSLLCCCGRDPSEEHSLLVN
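Tet-induced TRPML1-DL cells loaded with Ca8 no-wash calcium dye were read kinetically on FDSS. Compound addition was followed by EC80 agonist 54-4 (4 uM final); inhibition was read over 110 s.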
D2 potentiator – potentiates the human D2 dopamine receptor allosterically | P14416 | DiscoveRx D2 beta-arrestin cells, luminescence, 90 min; 100% = 57 uM dopamine signal | potentiation, % (concentration not given with the values) | actives 0.23% (n = 360,000); active = potentiation of 50% or more; inconclusive = 30% to 50%; inactive = 30% or less;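 also: compound concentration not given in the record; tested on top of an EC20 dose of dopamine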
Target sequence (P14416 whole entry, looked up): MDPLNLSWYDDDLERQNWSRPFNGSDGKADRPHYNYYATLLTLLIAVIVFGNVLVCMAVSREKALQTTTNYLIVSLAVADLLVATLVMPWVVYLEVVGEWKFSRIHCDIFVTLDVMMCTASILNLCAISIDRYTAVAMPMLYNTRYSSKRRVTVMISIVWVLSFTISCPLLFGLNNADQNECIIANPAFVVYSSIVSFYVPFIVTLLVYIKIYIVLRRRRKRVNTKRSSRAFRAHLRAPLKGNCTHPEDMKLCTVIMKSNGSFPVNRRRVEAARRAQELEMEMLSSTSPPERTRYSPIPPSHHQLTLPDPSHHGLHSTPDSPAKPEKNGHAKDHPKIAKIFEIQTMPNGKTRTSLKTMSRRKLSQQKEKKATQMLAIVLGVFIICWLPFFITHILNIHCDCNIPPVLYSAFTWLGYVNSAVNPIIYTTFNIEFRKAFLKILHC
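PathHunter beta-arrestin assay in DiscoveRx D2 cells. Compounds were added with an EC20 of dopamine (50 nM final) for 90 min at 37 deg C. Luminescence was read 1 h after detection reagent, with 57 uM dopamine as the EC100 control.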
D2 ag – human D2 receptor agonism in beta-arrestin assay. P14416. DiscoveRx PathHunter D2 beta-arrestin, luminescence, 90 min; 100% = 57 uM dopamine signal. activation, % (no concentration beside the values). actives 0.084% (n = 360,000); in the data active = activation above about 40%; inconclusive = about 15% to 40%; inactive = below about 15%; also: compound concentration not given in the record; the text of the record calls up to 30% inactive
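DiscoveRx PathHunter D2 beta-arrestin cells (2,100/well) attached overnight, then compound-stimulated 90 min at 37 C in HBSS/10 mM HEPES/0.1% Tween-20 buffer; beta-galactosidase complementation read by luminescence after 1 h at ambient temperature. Dopamine 57 uM final (EC100) as control.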
Six1-Eya2 inh – inhibitors of human Six1/Eya2 interaction. Q15475+O00167. AlphaScreen GST-Six1/His-Eya2 binding, biochemical; active compounds read low; control for the full effect not named in the record. activity change, % (concentration not given with the values). actives 0.56% (n = 360,000); in the data active = activity change below about -65%; inconclusive = about -30% to -65%; inactive = above about -30%; also: % is scaled to controls: 0 for no effect and ±100 for the full control effect
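Compounds are tested against tagged Six1 and Eya2 proteins bridged by glutathione donor and nickel acceptor beads; after a one-hour incubation at 37 °C without light, AlphaScreen emission is recorded.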
PINK1 expr mod – changes PINK1 expression | Potency, µM (top dose mostly 76.6 µM), without a hit: at the highest dose activation (PINK1 increase), most hits filed as activators | actives 0.2% (n = 410,000) | PINK1 immunofluorescence, high-content cytometry, 24 h | AID 624263; active = well fitted activation curve with a large enough effect; inconclusive = small, poorly fitted or top-dose-only effect; inactive = flat fitted curve, though single readings scatter; cell line not stated here;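 also: potency is read from the fitted curve at half-maximal effect; % of control where 0% means no effect; nearly all actives have a fitted effect of over 65% in size; a mitochondrial uncoupler was the plate control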
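Compound titrations (5 concentrations, 24 h) on a stable cell line; DMSO and CCCP controls. Endpoint: fixed-cell PINK1 immunofluorescence with mitochondrial, cell and nuclear markers, scanned by microplate cytometer.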
TRPML1 ag – agonists of human TRPML1 channel | actives 0.12% (n = 410,000) | activation, % (no concentration beside the values) | TRPML1-expressing cells, Ca2+ dye fluorescence, FDSS; host cell line not named in the record; reference of the full effect not given here | Q9GZU1 | AID 624414; in the data active = activation above about 50%; inconclusive = about 30% to 50%; inactive = below about 30%; also: 0% is about no effect; the text of the record puts the active cut at 80%
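In this qHTS format, compounds were pin-transferred onto Ca8-dye-loaded TRPML1-DL cells induced with Tet overnight, and intracellular Ca2+ fluorescence was recorded kinetically for 110 s after a 10 s baseline. A subsequent 4uM final 54-4 (EC80) addition followed by a second 110 s read served as the antagonist phase.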
* hit, by the source's call; ? = inconclusive; nt = no result given; & = joins results of further samples; [ ] = another dose, or the depositor's remark. No enrichment for hits. About 1% of those tested had a hit in this group.

SMILES	TRPML1 inh	D2 potentiator	D2 ag	Six1-Eya2 inh	PINK1 expr mod	TRPML1 ag
COc1cc2c(c(OC)c1OC)-c1c(cc3c(c1O)OCO3)C[C@@H](C)[C@@H](C)C2	44	30	-3.9	-8	4.1%	0.6
CC(C)=CCOc1ccc2c(C)c(CC(=O)N3C[C@H]4C[C@@H](C3)c3cccc(=O)n3C4)c(=O)oc2c1C	nt	-36	-6.3	-2	2.7%	nt
CCCCCn1c(=O)[nH]c2cc(C(=O)NCCc3ccc(OC)c(OC)c3)ccc2c1=O	-10	14	0.4	-18	9.7%	-0.8
NC(=O)CSc1nnnn1-c1ccc(OC(F)(F)F)cc1	-3	-9	-2.0	2	30%[38.3 µM]	-0.1
C[C@]12CCC(=O)C=C1CC[C@@H]1[C@@H]2[C@@H](O)C[C@@]2(C)[C@H]1CC[C@]2(O)C(=O)COC(=O)CCC(=O)O	-3&25	-2&-3	3.3&5.6	-1&5	7.4%&2.8%	-0.8&0.3
Cc1cccnc1CCNCc1c(C(=O)N2C[C@@H](C)O[C@@H](C)C2)nc2ccc(Cl)cn12	14	-35	-1.0	17	-0.7%	0.0
Cc1ccc(C(=O)N2CCC(n3nccc3NC(=O)Nc3cccc(F)c3)CC2)cn1	-17	5	0.3	6	1.2%	-0.6
CNc1ccccc1C(=O)OC	9	-3	0.0	3	-0.1%	0.3
OCc1cnc(SCc2ccccc2F)n1Cc1ccc(F)cc1	4	nt	nt	nt	-5.1%	0.2
COc1ccc(Cl)cc1NC(=O)CN(C)C1CCCCC1	6	-35	-3.6	-15	0.6%	-0.9
CC(C)(C)OC(=O)N(c1cccc2cccnc12)S(=O)(=O)c1ccccc1Br	2	nt	nt	nt	-0.8%	3.5
COc1ccc(-c2c3c(nc4sc(C(=O)Nc5ccccc5F)c(N)c24)CC(C)(C)CC3=O)cc1	17	nt	nt	nt	13%	4.7
Cc1ccc(S(=O)(=O)CCC(=O)OCC(=O)N(Cc2ccccc2)C(C)C)cc1	-5	3	0.2	7	-0.7%	-0.5
CN(C)c1ccc(/C=N/NC(=O)c2cc(=O)[nH]c3ccccc23)cc1	-1	-15	-4.6	-8	2.7%	0.5
CCCSC1=C(C#N)C(c2ccccc2C)C(C(=O)OC)C(=O)N1 (stereo unspecified)	61	-6	-2.4	-12	-4.6%[38.3 µM]	1.7
COc1cc(/C=C2\C(=O)N(CCC#N)N=C2C)ccc1OCC(=O)Nc1ccccc1	0	1	0.1	-1	0.8%	0.4
COc1cccc(N2CCN(C(=O)CN3C(=O)NC(C)(c4ccc5ccccc5c4)C3=O)CC2)c1 (stereo unspecified)	-8	2	-0.2	-16	-0.8%	-0.8
CC1(C)CCCN(C(=O)c2coc(=O)c(Br)c2)C1	6	-9	0.4	?	0.3%	-0.3
CCN(CC)C(=O)CSc1nc2ccccc2c(=O)n1CCC(=O)N1CCN(c2ccccc2)CC1	-1	-1	-5.0	13	-1.3%	-0.5
COc1ccc(N2CCN(C(=O)COc3cccc4ccccc34)CC2)cc1	7	-2	-0.1	?	0.1%	2.6
Cn1c(=O)c2c(nc(N/N=C/c3ccco3)n2C)n(C)c1=O	-7	4	2.1	?	1.1%	2.0
Cc1ccc(S(=O)(=O)c2nnn3c2nc(NCc2ccccc2Cl)c2sccc23)cc1	16	nt	nt	nt	7.7%	0.1
CC(C)(C)[C@H]1COC(=O)[C@@H](Cc2ccc(F)cc2)CC/C=C/C[C@@H](CC(=O)N[C@H](CO)Cc2ccccc2)C(=O)N1	28	-4	-1.8	-2	3.2%	4.9
NC(=O)CC(NC(=O)Cc1cccc2ccccc12)c1ccc(NC2CCN(Cc3ccccc3)CC2)c([N+](=O)[O-])c1 (stereo unspecified)	0	-15	-3.0	0	14%	-0.7
COc1ccc(CNc2nc(NC(C)=O)nn2-c2ccccc2)cc1	1	-4	0.4	7	-0.8%	0.1
CCOc1ccc(N(CC(=O)NCc2ccc(OC)cc2)S(=O)(=O)c2c(C)noc2C)cc1	-5	-3	0.5	1	6.6%	0.3
CCc1ccccc1NS(=O)(=O)c1ccc2[nH]cc(C(=O)NC3CCCC3)c(=O)c2c1	4&-3	26	3.1	-19	11%&15%	1.4&1.2
Cc1sc2ncnc(SCc3ccco3)c2c1C	10	-4	-2.2	1	2.2%	0.6
Cc1[nH]n(S(=O)(=O)c2ccccc2)c(=O)c1N=Nc1cccc(Cl)c1	6	-1	0.6	-3	-0.7%	0.9
COc1ccc(CNC(=O)CN(C(=O)c2csnn2)c2ccc(C(C)=O)cc2)cc1	16	-6	-5.1	-1	1.4%	-0.8
CC[C@@H](C)C(N)c1cn([C@@H](CCC(=O)O)C(=O)N2CCNCC2)nn1 (stereo partly specified)	-7	-5	0.5	-8	0.6%	0.0
Cc1[nH]c2ccccc2c1C(=O)CN1C(=O)NC(C)(c2ccc(Cl)cc2Cl)C1=O (stereo unspecified)	-15	-5	2.8	-28	-3.1%	16
COc1ccc(Cc2c(-c3ccc(C)cc3)nc3ccc(Cl)cn23)c(C)c1	50	-5	-3.8	0	32µM*	0.3
O=C(N/N=C/c1ccc(O)cc1)c1ccc(COc2cc(Cl)ccc2Cl)o1	2	7	-2.5	-13	13%	22
O=C(O)CC(C(=O)O)N1C(=O)/C(=C/C=C/c2ccco2)SC1=S (stereo unspecified)	-10	-4	-3.4	?	1.3%	0.5
O=C(NCc1ccc(F)cc1)C1CCN(S(=O)(=O)c2cccnc2)CC1	-2	-6	-2.4	4	1.0%	-0.2
Cc1ccc(C)c(CN2C(=O)NC3(CCCCCC3)C2=O)c1	-1	-2	-4.8	-9	-0.8%	-1.3
O=C(COC(=O)c1ccc(Br)o1)NCc1cccs1	8	-5	-0.3	-1	-1.8%	-1.3
Cc1cc(C)c(C(=O)COC(=O)c2cc([N+](=O)[O-])ccc2NCCO)cc1C	10	-18	-3.3	2	14%	0.5
CCOC(=O)CNC(=O)CSc1ccc2nnc(-c3ccc(F)cc3)n2n1	12	10	6.6	-1	2.5%	2.4
CCCn1nc(NC(=O)c2cccs2)c2cc3ccc(C)cc3nc21	3	6	6.3	18	7.4%	1.1
COc1ccccc1CCC(=O)N(C)CC(=O)Nc1ccc(Cl)c(C(F)(F)F)c1	-3	-30	-5.1	4	1.4%	0.6
O=[N+]([O-])c1cc(NCCO)c(N2CCCCCC2)c2nonc12	7	-11	-1.2	0	-1.6%	-0.1
Cc1ccsc1CNC1C2CC3CC(C2)CC1C3 (stereo unspecified)	28	-11	-3.1	4	2.9%	0.7
CCOC(=O)C1=C(N)OC2=C(C(=O)CCC2)C1c1ccccc1OCC (stereo unspecified)	14	-11	-3.0	2	nt	-0.1
CCOc1ccc(NC(=O)C2CC(=O)N(Cc3ccco3)C2)cc1 (stereo unspecified)	0	2	-1.1	-1	1.3%	-0.2
Cc1nc(C)c(-c2ccc(SCc3ccccc3F)nn2)s1	-9	-5	13	-11	0.2%	1.9
CCc1ccc(CNC(=O)CCn2ccc3cc(S(=O)(=O)N4CCCC4)ccc32)cc1	9	-7	2.5	1	0.2%	0.8
Cn1cccc1C(=O)OCC(=O)NCCc1ccccc1	-14	-3	0.1	0	-0.3%	2.0
Fc1ccccc1Nc1nc2ccccc2o1	4	-3	-1.4	-6	4.0%	2.0
CC(=O)NNC(=S)Nc1cccc(F)c1	45	-5	-1.4	-1	-0.9%	0.3
O=C(CN1CCN(c2ccc(Cl)cc2)CC1)N1CCCC1	9	-32	-2.8	21	-2.2%	2.7
N#Cc1c(NC(=O)CSc2ncn[nH]2)sc2c1CCCCC2	23	-5	4.4	-2	1.9%[38.3 µM]	1.5
COc1ccc(CN2CC(C(=O)NCCc3ccc(Cl)cc3)CC2=O)cc1 (stereo unspecified)	37	-12	-2.7	1	-1.9%	0.9
CCCCn1c(N)c(N(CCOC)C(=O)CN(C)S(=O)(=O)c2ccc(F)cc2)c(=O)[nH]c1=O	15	5	3.2	4	6.9%	0.0
O=C(O)c1ccc2c(=O)[nH]c(CCl)nc2c1	-14	-1	3.9	0	-0.9%	-1.1
CCOc1ccc(CC(=O)NNC(=S)NC)cc1	-11	0	2.0	3	1.6%	0.4
CCCCN(CCCC)C(=O)c1ccccc1NC(=O)CN1C(=O)c2ccccc2C1=O	5	-21	-1.9	-6	1.7%	-0.4
COc1ccccc1/C=C/C(=O)OCC(=O)NC1CC1	-5	-20	-2.1	6	-1.0%	0.0
CCOC(=O)c1c(C)nc(SCC(N)=O)c(C#N)c1-c1ccccc1	-2	0	4.1	8	2.3%	2.2

Copied from the list:
`N#Cc1c(NC(=O)CSc2ncn[nH]2)sc2c1CCCCC2` in PINK1 expr mod is entered as 1.9%[38.3 µM]
`CCOc1ccc(NC(=O)C2CC(=O)N(Cc3ccco3)C2)cc1` (stereo unspecified) in D2 ag is entered as -1.1
`COc1ccccc1/C=C/C(=O)OCC(=O)NC1CC1` in PINK1 expr mod is entered as -1.0%
`O=C(CN1CCN(c2ccc(Cl)cc2)CC1)N1CCCC1` in D2 ag is entered as -2.8
`Cc1nc(C)c(-c2ccc(SCc3ccccc3F)nn2)s1` in D2 ag is entered as 13

Continuation.
SMILES	TRPML1 inh	D2 potentiator	D2 ag	Six1-Eya2 inh	PINK1 expr mod	TRPML1 ag
O=C(Cn1ccccc1=O)c1ccc(Cl)cc1	-3	-2	-2.9	5	1.8%	1.0
O=C(c1ccccc1)C1CC=CCC1C(=O)c1ccccc1 (stereo unspecified)	21	-4	-1.9	6	-1.2%	3.5
O=C(c1ccco1)N1CCN(Cc2cn[nH]c2-c2cccc3ccccc23)CC1	29	-9	-4.2	-6	1.6%	-0.7
c1coc(CNc2nc3nonc3nc2NCc2ccco2)c1	1	0	-1.8	-8	-1.9%&-0.6%	1.0&-0.2
O=C(NC1CCCCC1)c1n[nH]c2c1CC(c1ccccc1)CC2 (stereo unspecified)	11	-9	-4.4	8	4.2%	0.2
COCCCNC(=O)CSc1nc2sc(C(=O)OC)c(C)c2c(=O)n1N	-6	-1	-0.3	-2	0.0%	-0.4
CCN1CCN(CC(=O)Nc2nc3ccc(C)cc3s2)CC1	10	-27	-0.1	-1	0.4%	-0.3
Nc1nc(NCCOCCO)nc(Nc2cccc(F)c2)c1[N+](=O)[O-]	7	10	-4.8	?	0.0%	2.2
COc1cc(/C=C/c2onc(C)c2[N+](=O)[O-])cc(OC)c1OC	-15	-7	0.0	3	5.3%	0.1
CCCn1c(CN2CCN(c3cccc(Cl)c3)CC2)nc2c1c(=O)n(C)c(=O)n2C	?	-5	-1.9	0	-0.3%	0.0
CCc1cc2c(=O)c(-c3cnn(-c4ccccc4)c3)c(C)oc2cc1OCC(=O)Nc1cccc(C)c1	12	-7	-3.3	0	1.4%	-0.7

Shown with each value named: 2 of the compounds above
> c1coc(CNc2nc3nonc3nc2NCc2ccco2)c1
- TRPML1 inh: 1
- D2 potentiator: 0
- D2 ag: -1.8
- Six1-Eya2 inh: -8
- PINK1 expr mod: -1.9%&-0.6%
- TRPML1 ag: 1.0&-0.2
> O=C(NC1CCCCC1)c1n[nH]c2c1CC(c1ccccc1)CC2 (stereo unspecified)
- TRPML1 inh: 11
- D2 potentiator: -9
- D2 ag: -4.4
- Six1-Eya2 inh: 8
- PINK1 expr mod: 4.2%
- TRPML1 ag: 0.2
